# CtBP-E1A inh – qHTS Assay for Inhibitors of the CtBP/E1A Interaction. CtBP / adenovirus E1A interaction (AlphaScreen). AlphaScreen GST-E1A/His-CtBP binding, 1536-well; active compounds read low; control for the full effect not named in the record. activity change, % (no concentration beside the values). 340,000 tested, 0.49% active. AID 651724, 2012; in the data active means activity change below about -65%; inconclusive means about -30% to -65%; inactive means above about -30%; further: on the % scale 0 is the no-effect control and ±100 the full control effect
#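 Homogeneous bead-based format: GST-tagged E1A captured on glutathione donor beads, His-tagged CtBP on nickel acceptor beads; compounds precede bead addition by 2 h at 37 °C.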
# TRPML1 ag – qHTS for Agonists of the Human Mucolipin Transient Receptor Potential 1 (TRPML1); TRPML1-expressing cells, Ca2+ dye fluorescence, FDSS; host cell line not named in the record; reference of the full effect not given here; activation, % (no concentration beside the values); 410,000 tested, 0.12% active; AID 624414, 2012; in the data active = activation above about 50%; inconclusive = about 30% to 50%; inactive = below about 30%; further: 0% is about no effect; the text of the record puts the active cut at 80%
# Target sequence (Q9GZU1 whole entry, looked up): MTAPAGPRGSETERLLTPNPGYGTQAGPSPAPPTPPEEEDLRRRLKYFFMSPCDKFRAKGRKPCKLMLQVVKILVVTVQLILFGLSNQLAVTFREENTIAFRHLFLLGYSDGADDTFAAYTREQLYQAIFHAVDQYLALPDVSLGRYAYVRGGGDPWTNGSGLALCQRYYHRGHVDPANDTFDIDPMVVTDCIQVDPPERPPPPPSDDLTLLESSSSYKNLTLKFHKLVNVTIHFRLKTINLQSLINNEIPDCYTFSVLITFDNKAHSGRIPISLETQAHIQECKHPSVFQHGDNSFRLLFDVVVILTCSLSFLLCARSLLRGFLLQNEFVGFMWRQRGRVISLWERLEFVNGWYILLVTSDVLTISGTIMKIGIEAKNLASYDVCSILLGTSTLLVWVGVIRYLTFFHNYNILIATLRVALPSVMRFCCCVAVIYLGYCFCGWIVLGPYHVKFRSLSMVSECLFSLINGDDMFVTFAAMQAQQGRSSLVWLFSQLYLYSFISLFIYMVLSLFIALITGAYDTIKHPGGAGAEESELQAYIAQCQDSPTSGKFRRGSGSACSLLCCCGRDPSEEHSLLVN
#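 In this qHTS format, compounds were pin-transferred onto Ca8-dye-loaded TRPML1-DL cells induced with Tet overnight, and intracellular Ca2+ fluorescence was recorded kinetically for 110 s after a 10 s baseline. A subsequent 4uM final 54-4 (EC80) addition followed by a second 110 s read served as the antagonist phase.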
# Six1-Eya2 inh – qHTS Assay for Inhibitors of the Six1/Eya2 Interaction | 360,000 tested, 0.56% active | activity change, % (concentration not given with the values) | Homeobox protein SIX1 (Homo sapiens) + Protein phosphatase EYA2 (Homo sapiens), … | AlphaScreen GST-Six1/His-Eya2 binding, biochemical; active compounds read low; control for the full effect not named in the record; in the data active = activity change below about -65%; inconclusive = about -30% to -65%; inactive = above about -30%; further: on the % scale 0 is the no-effect control and ±100 the full control effect
#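 AlphaScreen luminescence read after one hour at 37 °C in darkness. Pin-transferred compounds met GST-Six1 and His-Eya2 protein (5X stock 250 nM/500 nM) plus glutathione donor and Ni-chelate acceptor beads (5X, 50 ug/mL).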
# TRPML1 inh – qHTS for Inhibitors of the Human Mucolipin Transient Receptor Potential 1 (TRPML1) | activity change, negative = inhibition, % (test concentration not listed) | 390,000 tested, 0.02% active | AID 624415, 2012 | Mucolipin-1 (Homo sapiens), Q9GZU1 | TRPML1-inducible cells, Ca2+ dye fluorescence, FDSS; active compounds read low; inhibition of EC80 agonist-evoked calcium signal; in the data active means activity change below about -50%; inconclusive means about -30% to -50%; inactive means above about -30%;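 further: stimulus is agonist 54-4 at its EC80 concentration; on the % scale 0 is the no-effect control and ±100 the full control effect; compound concentration not given in the record; the text of the record puts the active cut at -80%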
#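 Calcium fluorescence in TRPML1-DL cells induced overnight with Tet: a 110 s read after compound pin addition, then a 110 s antagonist read after challenge with 54-4 at 4 uM final (EC80).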
# D2 agonist – Beta-Arrestin HTS for Positive Allosteric Modulators of the Human D2 Dopamine Receptor: Agonists; activation, % (concentration not given with the values); AID 624465, 2012; D(2) dopamine receptor (Homo sapiens), P14416; DiscoveRx PathHunter D2 beta-arrestin, luminescence, 90 min; 100% = 57 uM dopamine signal; 360,000 tested, 0.084% active; in the data active = activation above about 40%; inconclusive = about 15% to 40%; inactive = below about 15%; further: compound concentration not given in the record; the text of the record calls up to 30% inactive
# Target sequence (P14416 whole entry, looked up): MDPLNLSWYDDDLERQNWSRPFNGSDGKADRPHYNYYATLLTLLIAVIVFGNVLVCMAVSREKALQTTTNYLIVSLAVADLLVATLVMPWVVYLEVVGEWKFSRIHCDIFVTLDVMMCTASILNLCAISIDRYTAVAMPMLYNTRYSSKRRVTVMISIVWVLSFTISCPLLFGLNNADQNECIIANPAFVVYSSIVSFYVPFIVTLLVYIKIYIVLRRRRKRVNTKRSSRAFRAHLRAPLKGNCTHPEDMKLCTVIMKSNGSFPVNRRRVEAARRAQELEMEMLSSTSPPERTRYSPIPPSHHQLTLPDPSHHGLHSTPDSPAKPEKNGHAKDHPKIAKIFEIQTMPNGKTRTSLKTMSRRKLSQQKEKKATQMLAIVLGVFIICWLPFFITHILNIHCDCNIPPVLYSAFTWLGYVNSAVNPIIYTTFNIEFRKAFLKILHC
#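 Agonist mode: compounds alone added to overnight-plated D2 PathHunter cells for 90 min at 37 C, with 57 uM final dopamine (EC100) defining full response. Beta-arrestin recruitment detected by chemiluminescent reagent, read after 1 h at ambient temperature.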
# PINK1 expr mod – A Quantitative High throughput Screen to Identify Chemical Modulators of PINK1 Expression; PINK1 immunofluorescence, high-content cytometry, 24 h; Potency, µM (titrated, usually from 76.6 µM), without a hit: at the highest dose activation (PINK1 increase), hits mostly activators; 410,000 tested, 0.2% active; active = well fitted activation curve with a large enough effect; inconclusive = small, poorly fitted or top-dose-only effect; inactive = flat fitted curve, though single readings scatter; cell line not stated here;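 further: potency means the concentration at half of the fitted maximal effect; % of control where 0% means no effect; nearly all actives have a fitted effect of over 65% in size; a mitochondrial uncoupler was the plate control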
#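 PINK1 protein, normally rapidly degraded, was detected by immunofluorescence after 24 hour compound treatment of a stable cell line. Titration data (5 concentrations) came from laser-scanning cytometry, with CCCP-treated wells as controls.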
# * = called active by the depositor; ? = inconclusive; . = not tested or not shown; [ ] = another dose, or the depositor's remark.
SMILES,CtBP-E1A inh,TRPML1 ag,Six1-Eya2 inh,TRPML1 inh,D2 agonist,PINK1 expr mod
Cc1ccc2c(c1)N(CC(=O)NCCCN1C(C)CCCC1C)C(=O)c1cccnc1O2 (stereo unspecified),2,0.6,0,-14,0.2,2.0%
O=C(NCC(c1ccco1)N1CCN(c2ccccc2F)CC1)C1CCCCC1 (stereo unspecified),-3,1.6,-1,23,?,-5.1%
CCCNC(=O)NC(C)C12CC3CC(CC(C3)C1)C2 (stereo unspecified),6,1.0,2,3,0.9,.
COc1ccc(C(=O)Nc2cccc(/C(C)=N/NC(=O)c3ccc([N+](=O)[O-])c(C)c3)c2)cc1OC,0,0.5,-17,18,-0.3,0.9%
O=C(Cc1ccccc1)Nc1cc(C(=O)c2ccccc2)ccc1N1CCOCC1,-1,0.6,1,1,0.0,.
CC(C)(OC(=O)NC(=O)C(F)(F)F)C(C)(C)OC(=O)NC(=O)C(F)(F)F,1,0.3,14,-8,-4.1,1.2%
CCOC(=O)N1CCC(NC(=O)C2CCC(Cn3c(=O)[nH]c4ccccc4c3=O)CC2)CC1 (stereo unspecified),3,0.1,3,24,-0.9,3.0%
O=C(CCC(=O)Nc1ccccc1)NNC(=O)CCc1ccccc1,9,-0.4,3,-8,3.3,-1.1%
O=C(CN1CCOCC1)Nc1ccccc1C(=O)O,7,-0.1,0,-18,-1.6,1.5%[38.3 µM]
CC(C)(C)C(=O)OC/C(N)=N/OC(=O)c1ccc(Cl)cc1,2,-0.5,5,-8,?,1.2%
CCCOc1ccc(N2C(=O)C3C(C(C)C)NC4(C(=O)c5ccccc5C4=O)C3C2=O)cc1 (stereo unspecified),5,8.7,1,-7,-2.8,0.5%[38.3 µM]
COC(=O)c1ccc(CSc2nnnn2C)o1,-2,-0.8,0,-5,-1.4,-2.3%
CC(=O)c1cccc(N(C(=O)c2csnn2)C(C(=O)NC2CCCC2)c2ccccc2)c1 (stereo unspecified),-5,0.7,3,-6,6.5,-0.7%
CCCCc1c(C)nc2ccccc2c1SCCC(=O)O,.,1.0,3,2,-2.8,-1.7%
O=C(c1cccc(S(=O)(=O)N2CCOCC2)c1)N1CCN(c2ccc(F)cc2)CC1,38,-0.6,18,-8,-2.4,2.6%[38.3 µM]
O=C(O)C1CCN1C1CCCCC1 (stereo unspecified),-1,-0.1,10,-5,-0.7,2.5%
COc1ccccc1-n1c([S-])c(C(=O)Nc2ccccc2C(F)(F)F)[n+]2ccc(C(=O)NCCO)cc12,0,13,-7,-10,-4.9,0.3%
CCOC(=O)Cc1nnc(Nc2cc(C)ccc2C)c2ccccc12,3,-0.4,4,-9,-5.7,2.3%
O=C(COC(=O)c1cnccn1)Nc1cccc(F)c1,.,-1.1,-2,-2,0.6,1.5%
O=S(=O)(c1cc(Cl)ccc1Br)N1CCCCC1,9,0.6,14,20,-1.8,0.2%[38.3 µM]
Cc1ccc(-c2noc(-c3ccccc3NC(=O)C3CC(=O)N(c4ccc(C)cc4)C3)n2)cc1 (stereo unspecified),.,-0.5,.,-11,.,2.9%
Cc1ccc(C)c(NS(=O)(=O)c2ccc(-n3cccn3)cc2)c1,-15,0.4,6,-19,1.4,7.9%
CC(C)C[C@H]1CN(CCCC[C@@H]2CNC(=O)C(=O)N2CC2CCCCC2)C(=O)C(=O)N1CC1CCCCC1,3,-0.5,7,.,.,0.8%
CCSc1cc(N2CCCC2)nc(-c2ccc(Cl)cc2)n1,2,-0.3,-8,?,-1.9,1.6%
CN(C)c1nc(N)c([N+](=O)[O-])c(NCc2ccccc2)n1,3,1.6,13,12,0.1,20%
Cn1cnc([N+](=O)[O-])c1Sc1ccc(C(C)(C)C)cc1,2,4.4,0,15,0.2,0.8%
COc1ccc(NS(=O)(=O)c2ccc(C(=O)N3CCN(Cc4ccccc4)CC3)cc2)cc1,.,1.9,-3,2,-0.2,-1.6%
Nc1nc(-c2ccccc2)nc(-c2ccccc2O)n1,11,-0.1,-16,0,0.3,-0.2%
CCOC(=O)C1(C)CCCN(C(=O)c2ccccc2)C1 (stereo unspecified),-2,-0.9,-9,.,-1.6,-0.2%
Cc1ccc(Cl)c(NC(=S)N(CCCN2CCOCC2)Cc2ccco2)c1,-11,0.4,-9,0,-0.9,.
Cc1nn(C)c(C)c1CNC(=O)Nc1ccc(Cl)cc1,11,-0.4,5,4,-2.8,4.9%
COC(=O)[C@@H]1[C@@H](C)N(Cc2ccccc2)C(=O)N[C@H]1c1ccccc1,6,-0.2,1,41,0.2,-0.2%
O=C(O)c1cc2sccc2s1,0,1.4,0,-23,-3.6,-2.1%
CCOC(=O)C1=C(COC(=O)CNS(=O)(=O)c2ccc(NC(C)=O)cc2)NC(=O)NC1C (stereo unspecified),0,3.8,-2,-9,-3.4,1.0%
Cc1[nH]n(-c2ccccc2)c(=O)c1C=Nc1cnc2ccccc2c1,-1,-1.3,-28,-5,-1.8,-2.2%
CCc1ccc(NC(=O)Nc2ccc3c(c2)N(C)C(=O)CS3)cc1,-2,-0.5,-12,5,-6.5,18µM*

# Entries from the list above that contain a nitro group on carbon (3):
SMILES,CtBP-E1A inh,TRPML1 ag,Six1-Eya2 inh,TRPML1 inh,D2 agonist,PINK1 expr mod
COc1ccc(C(=O)Nc2cccc(/C(C)=N/NC(=O)c3ccc([N+](=O)[O-])c(C)c3)c2)cc1OC,0,0.5,-17,18,-0.3,0.9%
CN(C)c1nc(N)c([N+](=O)[O-])c(NCc2ccccc2)n1,3,1.6,13,12,0.1,20%
Cn1cnc([N+](=O)[O-])c1Sc1ccc(C(C)(C)C)cc1,2,4.4,0,15,0.2,0.8%

# Additional entries
SMILES,CtBP-E1A inh,TRPML1 ag,Six1-Eya2 inh,TRPML1 inh,D2 agonist,PINK1 expr mod
COc1ccc(NC(=O)C2CCCN2S(=O)(=O)c2ccc(C)cc2)cc1 (stereo unspecified),2,-0.1,3,-8,-2.0,0.4%[38.3 µM]
Cc1cccc(C(=O)NCCNC(=O)c2cccc(C)c2)c1,-2,-0.1,5,57,2.5,0.7%
Cc1cccnc1Nc1nc(-c2ccc(F)cc2)cs1,1,-0.6,-9,-22,-4.5,2.8%
CC1(C(=O)NS(=O)(=O)c2ccccc2Cl)CCN1C(=O)c1cccc(F)c1 (stereo unspecified),10,-0.5,9,.,-7.1,-0.7%
COC(=O)c1c(SCC(=O)Nc2ccc(C)c(C)c2)nc(=O)[nH]c1C,-11,.,2,.,-2.3,0.6%
NS(=O)(=O)c1ccc(CCNS(=O)(=O)Cc2ccc(Cl)cc2)cc1,-2,-0.6,2,4,11,-0.8%
Cc1cc(NC(=O)c2cccc(Br)c2)n[nH]1,.,-0.2,0,5,-5.3,2.7%
O=C(CSc1ccccn1)N1CCN(C(=O)CSc2ccccn2)CC1,5,-1.1,0,-11,-0.6,-1.6%
O=C(NCc1ccccc1)c1cc(=O)nc2sc(-c3ccccc3)nn12,-2,-0.5,1,9,-3.9,0.8%
Cc1cc(C)n(-c2nc(C)c(C)c(=O)n2CC(=O)Nc2cccc([N+](=O)[O-])c2)n1,.,-0.1,.,8,.,0.5%
c1ccc(Cc2nnc3sc(-c4ccc5c(c4)OCO5)nn23)cc1,1,0.9,-1,-5,-2.0,13%[38.3 µM]
COc1ccc(C2C(C(C)=O)=C(O)C(=O)N2c2cccnc2)cc1OC (stereo unspecified),1,0.5,-3,5,0.1,-2.0%
COc1cccc(C(=O)OCC(=O)c2c(N)n(C)c(=O)n(C)c2=O)c1,-8,-0.2,0,23,-3.7,-0.1%
CC(C)(C)C(=O)C(Cl)C(=O)Nc1ccccc1 (stereo unspecified),-6,1.1,2,-1,-0.3,4.8%
CC1(C)CC(=O)c2cnn(-c3nc4ccccc4[nH]3)c2C1,-10,4.8,-6,-7,-2.6,11%[38.3 µM]
Cc1cc(OC(=O)c2ccc(C(F)(F)F)cc2)c([N+](=O)[O-])c(=O)[nH]1,4,-0.6,-1,19,-2.1,0.6%
CC(=O)Nc1ccc2c(c1)nc1n2CCSC1,4,0.1,-2,-8,-2.4,?
CCOC(=O)C1Oc2ccccc2C(c2ccc(F)cc2)=C1C(=O)OC (stereo unspecified),8,1.7,2,21,-1.6,0.4%
COc1ccc(C2(CNC(=O)c3ccc(OC)c([N+](=O)[O-])c3)CCCCC2)cc1OC,-2,-0.3,-6,28,0.7,4.5%
C=CCn1c(SCC(=O)c2cc(C)n(CCOC)c2C)nc2sc(C)c(C)c2c1=O,-4,-0.9,-11,-3,-0.6,6.6%
Cc1nc(-c2ccccc2)sc1-c1ccnn1C,13,-0.5,-2,-1,-2.3,2.2%
O=C(/C=C/c1ccc(Br)cc1)Nc1ccc(S(=O)(=O)Nc2ncccn2)cc1,.,2.8,0,47,7.3,2.8%
O=C(NCc1ccco1)c1ccccc1Nc1ccc(F)cc1,0,1.5,-25,83,-6.0,12%
CCN(CC)C(=O)CSc1ncccc1-c1nc2ccccc2[nH]1,-10,-1.1,-8,-13,-3.2,0.4%
COCCN(C(=O)CSc1nnc(-c2ccc(C)c(C)c2)o1)c1c(N)n(CC(C)C)c(=O)[nH]c1=O,-4,-0.3,4,0,2.6,1.1%
NS(=O)(=O)c1cccc(NC(=O)CSc2nnc(-c3ccncc3)n2C2CC2)c1,0,-0.4,-12,9,-0.7,-0.4%
On1cnnc1-c1ccccc1,-2,0.1,2,-1,-0.4,-0.2%
O=S1(=O)CC2SC(=S)N(c3ccccc3)C2C1 (stereo unspecified),.,-0.1,4,6,6.7,-1.0%
Cc1cccc(NC(=O)C2CCN(C(=O)c3ccc(F)cc3)CC2)n1,8,-0.1,-3,11,-1.6,0.7%
CCCSC1=C(C#N)C2(CCCCC2)C(C#N)=C(N)N1,4,0.1,-29,52,-0.9,2.0%
CCc1cccc(C)c1NC(=O)C1C2CCC(O2)C1C(=O)O (stereo unspecified),4,0.2,1,-8,-1.4,1.5%
CCOC(=O)COc1cc2oc(=O)cc(C)c2cc1[N+](=O)[O-],.,-0.6,3,2,-2.2,0.0%
COc1ccccc1NC(=O)C1C2CCCCC21 (stereo unspecified),9,1.7,31,-5,-2.3,-1.7%

# High-throughput results from PubChem.

# Rows were taken by chance; 1% or so of the library scored in one or more.
